# Assay outcomes as filed in PubChem BioAssay.
# supercomplex: supercomplex reporter luminescence per Hoechst cell count – Hoechst nuclei count (AID 1645838); Cells, luminescence/Hoechst cell count ratio, supercomplex reporter; active compounds read high; 2,000 tested, 5% active; z-score at 11 µM unless noted;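 active = mean z-score of two plates above 1.96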;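 also: control cybrid cells; higher means more mitochondrial supercomplex formation; U2OS-based cells read after two days; 0 = mean of sample wells on the plate; doses worked out from stocks diluted about 900-fold with the highest of each compound shown; many of its hits are not listed in these tables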
# supercomplex cell count: also measured in supercomplex; calls as there; cell count; measured here: cell number, Hoechst nuclei count;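 nuclei per well as mean of two plates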
# An asterisk follows results filed as active; i = inactive; / = no result given. Only part of the results is shown. The share of hits here may be higher or lower than overall.
# Values run as follows: supercomplex cell count	supercomplex
- COc1cccc(OC)c1-c1ccc(CC(NC(=O)c2c(Cl)cccc2Cl)C(=O)O)cc1 (configuration not stated)
  5840	-0.21
- Cc1cc(C(C)Nc2ccccc2C(=O)O)c2nc(N3CCOCC3)cc(=O)n2c1 (configuration not stated)
  3412	0.88
- CNC(=O)c1ccccc1Nc1nc(Nc2ccc(N3CCOCC3)cc2OC)ncc1Cl
  /	i
- COc1cc(Nc2ncc3c(n2)-c2ccc(Cl)cc2C(c2c(F)cccc2OC)=NC3)ccc1C(=O)O
  /	i
- CN(C)CC1CCn2cc(c3ccccc32)C2=C(C(=O)NC2=O)c2cn(c3ccccc23)CCO1 (configuration not stated)
  4276	-0.11
- CCc1nc(-c2cccc(C)c2)c(-c2ccnc(NC(=O)c3ccccc3)c2)s1
  4199	-0.77
- CC(NCc1ccc(OCc2ccccc2F)cc1)C(N)=O (configuration not stated)
  6632	0.33
- COc1cc2c(cc1OC)CN(C(=O)C(NCc1ccncc1)C(C)(C)C)CC2 (configuration not stated)
  5592	-0.97
- COc1cc(NC(=O)c2ccc(-c3ccc(Cl)cc3)o2)cc(OC)c1
  6706	-1
- CN(C)CC(=O)Nc1ccc2[nH]c(=O)c3ccccc3c2c1
  6108	-0.45
- CCC(Nc1c(Nc2cccc(C(=O)N(C)C)c2O)c(=O)c1=O)c1ccc(C)o1 (configuration not stated)
  5204	-0.057
- COc1cc(N2CCOCC2)ccc1Nc1ncc(F)c(Nc2ccccc2NS(C)(=O)=O)n1
  1692*	3.2*
- CCOc1ccc(-n2c(C(C)N(Cc3cccnc3)C(=O)Cc3ccc(F)c(C(F)(F)F)c3)nc3ncccc3c2=O)cc1 (configuration not stated)
  4784	-0.029
- Cc1ccc2nc(NCCN)c3ncc(C)n3c2c1
  /	i
- O=C(O)c1ccc2c(c1)nc(Nc1cccc(Cl)c1)c1ccncc12
  1866	0.33
- O=C(Nc1ccccc1)Nc1ccc(-c2ccc(C(=O)C3CCCC3C(=O)O)cc2)cc1 (configuration not stated)
  5762	-0.46
- Cc1ccc2nc(N)[nH]c(=O)c2c1Sc1ccncc1
  /	i
- Cc1noc(-c2ccc(-c3ccc(CC(=O)O)cc3)cc2)c1NC(=O)OC(C)c1ccccc1 (configuration not stated)
  5236	-0.29
- N#Cc1ccc2[nH]cc(CCCCN3CCN(c4ccc5oc(C(N)=O)cc5c4)CC3)c2c1
  3318	-0.49
- COc1ccccc1OCCNCC(O)COc1cccc2[nH]c3ccccc3c12 (configuration not stated)
  4282	0.3
- Cc1cc2c(cc1CC(=O)c1sccc1S(=O)(=O)Nc1onc(C)c1Cl)OCO2
  4960	-0.34
- COc1ccc(-c2cnc3c(-c4cccc5ncccc45)cnn3c2)cc1
  3972	0.073
- Cc1nc(Nc2n[nH]c3c2CN(C(=O)NC(CN(C)C)c2ccccc2)C3(C)C)c2sccc2n1 (configuration not stated)
  /	i
- CC(C)N(CC1OC(n2cnc3c(N)ncnc32)C(O)C1O)C1CC(CCc2nc3ccc(C(C)(C)C)cc3[nH]2)C1 (configuration not stated)
  6216	-0.43
- NC1(c2ccc(-c3nc4ccn5c(=O)[nH]nc5c4cc3-c3ccccc3)cc2)CCC1
  3952	-0.069
- CC(=O)c1c(C)c2cnc(Nc3ccc(N4CCNCC4)cn3)nc2n(C2CCCC2)c1=O
  3078	1.2
- O=C(O)c1cc2ccccc2c(Cc2c(O)c(C(=O)O)cc3ccccc23)c1O
  4534	0.06
- NC(N)=NC(=O)Cc1c(Cl)cccc1Cl
  5939	-0.76
- COc1cccc(-c2cn(-c3ccc(CCN4CCC(O)CC4)cc3)c3ncnc(N)c23)c1
  2862*	6*
- CC1CC(=O)NN=C1c1ccc(NN=C(C#N)C#N)cc1 (configuration not stated)
  3283	-0.23

# Of the compounds above, these have a cyano group.
# Values run as follows: supercomplex cell count	supercomplex
- N#Cc1ccc2[nH]cc(CCCCN3CCN(c4ccc5oc(C(N)=O)cc5c4)CC3)c2c1
  3318	-0.49
- CC1CC(=O)NN=C1c1ccc(NN=C(C#N)C#N)cc1 (configuration not stated)
  3283	-0.23

# Reformatted comma-delimited: 4 of the compounds above
canonical_smiles,supercomplex cell count,supercomplex
O=C(O)c1cc2ccccc2c(Cc2c(O)c(C(=O)O)cc3ccccc23)c1O,4534,0.06
NC(N)=NC(=O)Cc1c(Cl)cccc1Cl,5939,-0.76
COc1cccc(-c2cn(-c3ccc(CCN4CCC(O)CC4)cc3)c3ncnc(N)c23)c1,2862*,6*
CC1CC(=O)NN=C1c1ccc(NN=C(C#N)C#N)cc1 (configuration not stated),3283,-0.23

# Record cards, as listed above. Values in the order: supercomplex cell count, supercomplex
# COc1cc2c(cc1OC)CN(C(=O)C(NCc1ccncc1)C(C)(C)C)CC2 (configuration not stated) as listed: 5592, -0.97
# N#Cc1ccc2[nH]cc(CCCCN3CCN(c4ccc5oc(C(N)=O)cc5c4)CC3)c2c1 as listed: 3318, -0.49
# CC1CC(=O)NN=C1c1ccc(NN=C(C#N)C#N)cc1 (configuration not stated) as listed: 3283, -0.23
# O=C(O)c1ccc2c(c1)nc(Nc1cccc(Cl)c1)c1ccncc12 as listed: 1866, 0.33
# COc1cc(NC(=O)c2ccc(-c3ccc(Cl)cc3)o2)cc(OC)c1 as listed: 6706, -1
